UUG fidelity: modulators of start codon recognition fidelity in yeast | S. cerevisiae UUG-firefly luciferase reporter, luminescence/redox ratio | activity score, % at 18.7 µM | hit rate 0.13% among 350,000 | AID 602363;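 active = replicate mean at a twofold rise or more, about +100% in these data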;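 also: firefly luciferase made from a UUG start codon reports start codon fidelity; reporter light over untreated wells divided by growth signal over untreated wells; some hits fall short of that in this replicate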
HIV Env fusion: inhibitors of HIV Env-mediated cell fusion; HeLa-JRFL Env/CEM21 cell fusion, luciferase; inhibition, % at 12.3 µM; hit rate 1.1% among 360,000;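 active = mean replicate inhibition score of at least 50 and every replicate individually at or above 50; inconclusive = only one of the two criteria met; inactive = mean below 50 and not all replicates reaching 50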;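 also: 0% = plate neutral controls and 100% = maraviroc near 300 nM; one replicate is shown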
* = called active by the depositor; ? = inconclusive; [ ] = dose if it differs, or a comment. This is a subset; count on the stated rates, not on these rows.

No.	Structure	UUG fidelity	HIV Env fusion
1	Cc1noc(C)c1NC(=O)N(C)C[C@@H]1Oc2ccc(NC(=O)NC(C)C)cc2C(=O)N([C@@H](C)CO)C[C@H]1C	-18	8[16.7 µM]
2	C[C@@H]1CN([C@H](C)CO)C(=O)Cc2cc(NC(=O)CCC(F)(F)F)ccc2O[C@H]1CN(C)Cc1ccccc1	-6	0[16.7 µM]
3	C[C@H]1CN([C@@H](C)CO)S(=O)(=O)c2ccc(C3=CCCCC3)cc2O[C@H]1CN(C)S(C)(=O)=O	29	31[16.7 µM]
4	Cc1noc(C)c1S(=O)(=O)Nc1ccc2c(c1)C(=O)N([C@H](C)CO)C[C@H](C)[C@@H](CN(C)S(=O)(=O)c1ccc(Cl)cc1)O2	-5	-6[16.7 µM]
5	COc1ccc(S(=O)(=O)N(C)C[C@@H]2OCCCC[C@@H](C)Oc3ccc(NC(=O)C4CCCCC4)cc3C(=O)N([C@@H](C)CO)C[C@@H]2C)cc1	-3	-15[16.7 µM]
6	C[C@@H]1CCCCO[C@H](CN(C)Cc2ccccc2)[C@H](C)CN([C@H](C)CO)C(=O)c2cc(NC(=O)NC3CCCCC3)ccc2O1	9	2[16.7 µM]
7	COc1ccc(S(=O)(=O)Nc2ccc3c(c2)C(=O)N([C@@H](C)CO)C[C@H](C)[C@H](CN(C)S(=O)(=O)c2ccc(Cl)cc2)OCCCC[C@@H](C)O3)cc1	-2	-12[16.7 µM]
8	CC(=O)N(C)C[C@@H]1Oc2cc(-c3cccc(C#N)c3)ccc2S(=O)(=O)N([C@@H](C)CO)C[C@H]1C	13	-20[16.7 µM]
9	CC(C)C#Cc1ccc2c(c1)O[C@@H](CN(C)C(=O)c1ccccc1)[C@H](C)CN([C@@H](C)CO)S2(=O)=O	7	-5[16.7 µM]
10	CNC[C@H]1Oc2cc(C#CCC3CCCC3)ccc2S(=O)(=O)N([C@H](C)CO)C[C@H]1C	9	22[16.7 µM]
11	C[C@@H]1CCCCO[C@H](CN(C)Cc2ccc(C(=O)O)cc2)[C@H](C)CN([C@H](C)CO)C(=O)c2cc(NC(=O)Nc3ccc(F)cc3)ccc2O1	5	23[16.7 µM]
12	COc1ccc(NC(=O)Nc2ccc3c(c2)CC(=O)N([C@H](C)CO)C[C@@H](C)[C@@H](CN(C)Cc2ccccc2)O3)cc1	-22	8[16.7 µM]
13	Cc1noc(C)c1NC(=O)N(C)C[C@H]1Oc2ccc(N(C)C)cc2CC(=O)N([C@H](C)CO)C[C@H]1C	-1	-10[16.7 µM]
14	CC(C)CC#Cc1ccc2c(c1)O[C@H](CN(C)C)[C@H](C)CN([C@@H](C)CO)S2(=O)=O	-1	-29[16.7 µM]
15	Cc1ccc(S(=O)(=O)Nc2ccc3c(c2)C(=O)N([C@H](C)CO)C[C@@H](C)[C@@H](CN(C)C(=O)Cc2ccccc2)OCCCC[C@@H](C)O3)cc1	20	-34[16.7 µM]
16	COc1ccccc1-c1cnc2c(c1)C(=O)N([C@H](C)CO)C[C@H](C)[C@@H](CN(C)C(=O)c1ccccc1)O2	-3	-15[16.7 µM]
17	Cc1noc(C)c1S(=O)(=O)N(C)C[C@@H]1OCCCC[C@@H](C)Oc2ccc(NS(=O)(=O)c3ccc(Cl)cc3)cc2C(=O)N([C@@H](C)CO)C[C@@H]1C	-12	5[16.7 µM]
18	CN(C)C(=O)C[C@H]1C[C@H]2c3cc(NC(=O)NC4CCCC4)ccc3O[C@H]2[C@H](CO)O1	-4	-2[16.7 µM]
19	C[C@@H]1CCCCO[C@@H](CN(C)C(=O)CCCN(C)C)[C@@H](C)CN([C@H](C)CO)C(=O)c2cc(NS(=O)(=O)c3ccc(Cl)cc3)ccc2O1	1	19[16.7 µM]
20	C[C@@H]1CCCCO[C@@H](CN(C)C(=O)Nc2ccc(F)cc2)[C@@H](C)CN([C@@H](C)CO)C(=O)c2cc(NC(=O)CCC(F)(F)F)ccc2O1	-1	-30[16.7 µM]

3 of the compounds above, as labelled records:
8: CC(=O)N(C)C[C@@H]1Oc2cc(-c3cccc(C#N)c3)ccc2S(=O)(=O)N([C@@H](C)CO)C[C@H]1C
  UUG fidelity: 13
  HIV Env fusion: -20[16.7 µM]
9: CC(C)C#Cc1ccc2c(c1)O[C@@H](CN(C)C(=O)c1ccccc1)[C@H](C)CN([C@@H](C)CO)S2(=O)=O
  UUG fidelity: 7
  HIV Env fusion: -5[16.7 µM]
10: CNC[C@H]1Oc2cc(C#CCC3CCCC3)ccc2S(=O)(=O)N([C@H](C)CO)C[C@H]1C
  UUG fidelity: 9
  HIV Env fusion: 22[16.7 µM]

(further entries)
No.	Structure	UUG fidelity	HIV Env fusion
21	COc1ccc(NC(=O)N(C)C[C@H]2OCCCC[C@@H](C)Oc3ccc(NS(=O)(=O)c4ccc(F)cc4)cc3C(=O)N([C@@H](C)CO)C[C@@H]2C)cc1	2	-19[16.7 µM]
22	C[C@H](CO)N1C[C@H](C)[C@@H](CN(C)Cc2ccc(Cl)c(Cl)c2)Oc2ccc(NC(=O)Nc3ccccc3)cc2C1=O	2	-7[16.7 µM]
23	C[C@H]1CN([C@@H](C)CO)C(=O)c2cc(NC(=O)C3CC3)ccc2O[C@@H]1CN(C)S(=O)(=O)c1ccc(F)cc1	6	-1[16.7 µM]
24	Cc1noc(C)c1NC(=O)N(C)C[C@@H]1Oc2ncc(C#CCC(C)C)cc2C(=O)N([C@H](C)CO)C[C@H]1C	5	-11[16.7 µM]
25	Cc1noc(C)c1S(=O)(=O)Nc1cccc2c1O[C@H](CN(C)S(=O)(=O)c1cccs1)[C@H](C)CN([C@@H](C)CO)C2=O	-3	51[16.7 µM]
26	C[C@@H]1CCCCO[C@@H](CN(C)S(=O)(=O)c2ccccc2)[C@H](C)CN([C@@H](C)CO)C(=O)c2cc(NS(=O)(=O)c3ccc(F)cc3)ccc2O1	15	-35[16.7 µM]
27	COc1ccc(S(=O)(=O)N(C)C[C@@H]2OCCCC[C@@H](C)Oc3ccc(NS(C)(=O)=O)cc3C(=O)N([C@@H](C)CO)C[C@H]2C)cc1	1	11[16.7 µM]
28	C[C@@H]1CN([C@@H](C)CO)C(=O)c2cc(-c3cncnc3)cnc2O[C@H]1CN(C)C(=O)Cc1cccnc1	-8	-30[16.7 µM]
29	Cc1noc(C)c1NC(=O)N(C)C[C@@H]1Oc2ccc(NC(=O)Nc3ccc(C(F)(F)F)cc3)cc2C(=O)N([C@@H](C)CO)C[C@@H]1C	-10	-8[16.7 µM]
30	O=C(CCN1CCCCC1)N[C@H]1CC[C@@H](CCn2cc(-c3ccccc3)nn2)O[C@@H]1CO	4	-1[16.7 µM]
31	COCC#Cc1cnc2c(c1)C(=O)N([C@@H](C)CO)C[C@H](C)[C@@H](CN(C)Cc1ccccc1F)O2	5	-8[16.7 µM]
32	CCNC(=O)C[C@@H]1CC[C@H]2[C@@H](COc3ccc(NC(=O)c4ccc(F)cc4)cc3C(=O)N2C)O1	-3	-10[16.7 µM]
33	C[C@@H]1CCCCO[C@@H](CN(C)C(=O)CCCN(C)C)[C@@H](C)CN([C@H](C)CO)C(=O)c2cc(NS(=O)(=O)c3ccccc3)ccc2O1	1	15[16.7 µM]
34	O=C(N[C@H]1CC[C@@H](CC(=O)N2CCCCC2)O[C@H]1CO)c1ccc2c(c1)OCO2	-9	5[16.7 µM]
35	C[C@H](O)C#Cc1ccc2c(c1)O[C@@H](CN(C)Cc1cccnc1)[C@@H](C)CN([C@@H](C)CO)S2(=O)=O	1	6[16.7 µM]
36	C[C@@H]1CN([C@@H](C)CO)C(=O)c2cc(-c3ccccc3F)cnc2O[C@H]1CN(C)C(=O)c1ccccn1	6	3[16.7 µM]
37	O=C(C[C@H]1C=C[C@H](NC(=O)c2cccc(F)c2)[C@@H](CO)O1)NCc1ccccc1	12	5[16.7 µM]
38	O=C(C[C@H]1C=C[C@H](NS(=O)(=O)c2ccc(F)cc2)[C@H](CO)O1)NCCN1CCCCC1	-3	8[16.7 µM]
39	Cc1ccc(-c2cnc3c(c2)C(=O)N([C@H](C)CO)C[C@@H](C)[C@@H](CN(C)C(=O)Cc2cccnc2)O3)cc1	18	-3[16.7 µM]
40	CC(=O)N[C@H]1C=C[C@@H](CC(=O)NCc2ccc(Cl)cc2)O[C@@H]1CO	-8	-10[16.7 µM]

No.	Structure	UUG fidelity	HIV Env fusion
41	C[C@H](CO)N1C[C@H](C)[C@H](CN(C)Cc2ccccc2)Oc2c(NC(=O)C3CCOCC3)cccc2C1=O	-4	17[16.7 µM]
42	C[C@@H]1CCCCO[C@@H](CN(C)C(=O)Cc2ccccc2)[C@H](C)CN([C@@H](C)CO)C(=O)c2cc(NC(=O)Nc3ccc4c(c3)OCO4)ccc2O1	26	9[16.7 µM]
43	C[C@@H]1CN([C@@H](C)CO)C(=O)c2cc(NC(=O)C3CCCCC3)ccc2O[C@H]1CN(C)C(=O)Nc1ccc(C(F)(F)F)cc1	-8	-3[16.7 µM]
44	CCC(=O)N[C@@H]1CC[C@@H](CCn2cc(C3CC3)nn2)O[C@H]1CO	-2	4[16.7 µM]
45	C[C@@H]1CCCCO[C@@H](CN(C)CC2CCCCC2)[C@H](C)CN([C@@H](C)CO)C(=O)c2cc(NC(=O)CCC(F)(F)F)ccc2O1	26	7[16.7 µM]
46	O=C(C[C@@H]1C[C@H]2c3cc(NC(=O)NC4CCCC4)ccc3O[C@H]2[C@@H](CO)O1)NCC1CC1	-2	0[16.7 µM]
47	COc1ccc(S(=O)(=O)N(C)C[C@@H]2OCCCC[C@H](C)Oc3ccc(NC(=O)C4CCCCC4)cc3C(=O)N([C@@H](C)CO)C[C@@H]2C)cc1	5	-21[16.7 µM]
48	C[C@@H]1CN([C@@H](C)CO)C(=O)c2cccc(NC(=O)Nc3ccccc3)c2O[C@H]1CN(C)C(=O)Nc1ccc2c(c1)OCO2	-7	-5[16.7 µM]
49	CCCNC(=O)C[C@@H]1C[C@H]2c3cc(NC(=O)NC4CCCC4)ccc3O[C@H]2[C@H](CO)O1	-6	-4[16.7 µM]
50	COCc1cn(CC[C@@H]2CC[C@H](NC(=O)Nc3ccc4c(c3)OCO4)[C@H](CO)O2)nn1	-4	-9[16.7 µM]
51	C[C@H](CO)N1C[C@H](C)[C@H](CN(C)C(=O)Nc2ccc3c(c2)OCO3)OCCCC[C@H](C)Oc2ccc(NS(=O)(=O)c3ccccc3)cc2C1=O	5	-28[16.7 µM]
52	COc1ccc(NC(=O)Nc2cccc3c2O[C@H](CN(C)C(=O)Nc2ccccc2)[C@H](C)CN([C@@H](C)CO)C3=O)cc1	11	-1[16.7 µM]
53	C[C@H](CO)N1C[C@H](C)[C@H](CN(C)CC2CC2)Oc2cc(/C=C/c3ccccc3)ccc2S1(=O)=O	-1	21[16.7 µM]
54	C[C@@H]1CCCCO[C@H](CN(C)C(=O)NC2CCCCC2)[C@@H](C)CN([C@H](C)CO)C(=O)c2cc(NS(=O)(=O)c3ccccc3)ccc2O1	17	-14[16.7 µM]
55	Cc1noc(C)c1NC(=O)Nc1ccc2c(c1)CC(=O)N([C@@H](C)CO)C[C@@H](C)[C@@H](CN(C)S(=O)(=O)c1ccccc1)O2	-7	-6[16.7 µM]
56	Cc1noc(C)c1S(=O)(=O)N(C)C[C@H]1Oc2ccc(NC(=O)Nc3ccc(C(F)(F)F)cc3)cc2CC(=O)N([C@H](C)CO)C[C@@H]1C	-10	1[16.7 µM]
57	C[C@@H]1CN([C@H](C)CO)C(=O)c2cc(NC(=O)Nc3ccc(F)cc3)ccc2O[C@@H](C)CCCCO[C@@H]1CN(C)C(=O)C1CCCCC1	-22	-3[16.7 µM]
58	CC(=O)N(C)C[C@@H]1Oc2ncc(C#Cc3ccncc3)cc2C(=O)N([C@@H](C)CO)C[C@H]1C	9	-16[16.7 µM]
59	C[C@H](CO)N1C[C@H](C)[C@H](CN(C)S(C)(=O)=O)Oc2ccc(NC(=O)Nc3ccc(F)cc3)cc2C1=O	8	13[16.7 µM]
60	C/C=C/c1ccc2c(c1)O[C@H](CN(C)C(=O)Cc1ccccc1)[C@@H](C)CN([C@@H](C)CO)S2(=O)=O	10	?

No.	Structure	UUG fidelity	HIV Env fusion
61	COCCNC(=O)C[C@H]1C[C@H]2c3cc(NC(=O)CC4CC4)ccc3O[C@H]2[C@H](CO)O1	-12	-16[16.7 µM]
62	Cc1noc(C)c1S(=O)(=O)N(C)C[C@@H]1Oc2ccc(NC(=O)C3CCCCC3)cc2CC(=O)N([C@H](C)CO)C[C@@H]1C	-3	36[16.7 µM]
63	C[C@H]1CCCCO[C@H](CN(C)C(=O)Nc2cccc3ccccc23)[C@@H](C)CN([C@@H](C)CO)C(=O)c2cc(NC(=O)Nc3ccc(F)cc3)ccc2O1	-4	-2[16.7 µM]
64	O=S(=O)(N[C@@H]1CCCN(Cc2ccc(OCCO)cc2)C1)c1ccc2ccccc2c1	-7	-9[16.7 µM]
65	COCC(=O)Nc1ccc2c(c1)OC[C@@H](C)N(C(=O)c1ccncc1)C[C@@H](C)[C@H](OC)CN(C)C2=O	-6	-6[16.7 µM]
66	CCCNC(=O)N(C)C[C@@H]1Oc2ncc(-c3ccc(C(=O)N(C)C)cc3)cc2C(=O)N([C@@H](C)CO)C[C@@H]1C	-4	-6[16.7 µM]
67	CCCC#Cc1cnc2c(c1)C(=O)N([C@@H](C)CO)C[C@H](C)[C@H](CN(C)Cc1cccnc1)O2	1	-14[16.7 µM]
68	C[C@H]1CN([C@@H](C)CO)C(=O)CCCn2cc(nn2)CO[C@@H]1CN(C)C(=O)c1ccccc1	6	-4
69	COc1ccc(C#Cc2cnc3c(c2)C(=O)N([C@H](C)CO)C[C@@H](C)[C@H](CN(C)C(C)=O)O3)cc1	12	20[16.7 µM]

Screens deposited in PubChem BioAssay by Broad Institute.
